Cruzain inh noDet – cruzain (T. cruzi) inhibition without detergent; 200,000 compounds, 2.3% hits; purified cruzain, Z-FR-AMC fluorescence, no detergent; Potency, µM, for the others: max response, negative = inhibition, hits mostly inhibitors; AID 1476; P25779; active = well fitted curve in the direction sought with a large enough effect; inconclusive = small, poorly fitted or top-dose-only effect, or another doubt; inactive = no such curve, though single readings can be large; an effect the other way counts as inactive or inconclusive;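 note: plate controls were enzyme without inhibitor for no effect and buffer without enzyme for full effect; nearly all actives have a fitted effect of over 40% in size; top concentration of the series not given in the record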
Target sequence (P25779 123-467 limits assumed): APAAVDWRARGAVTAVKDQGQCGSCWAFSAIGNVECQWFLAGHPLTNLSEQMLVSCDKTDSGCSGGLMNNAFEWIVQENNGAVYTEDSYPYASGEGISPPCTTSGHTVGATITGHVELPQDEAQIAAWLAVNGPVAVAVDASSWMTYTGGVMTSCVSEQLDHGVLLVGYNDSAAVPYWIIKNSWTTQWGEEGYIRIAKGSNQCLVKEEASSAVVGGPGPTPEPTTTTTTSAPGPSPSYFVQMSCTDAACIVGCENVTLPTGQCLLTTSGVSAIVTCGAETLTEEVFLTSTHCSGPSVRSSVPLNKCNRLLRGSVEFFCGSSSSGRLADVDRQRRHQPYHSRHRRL
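Purified cruzain at 1.5 nM, pre-incubated 15 min with compound at room temperature in 100 mM sodium acetate pH 5.5, 5 mM DTT, 0.00005% Triton X-100. Reaction started with 2 uM Z-FR-AMC; AMC fluorescence increase over 60 s gives rate.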
NS1 function inh – inhibitors of influenza NS1 protein function; S. cerevisiae slowed by influenza A NS1, growth recovery by OD600; Potency, µM (highest dose often 46.1 µM), for inactives: at the highest dose activity, positive = more growth; 270,000 compounds, 0.4% hits; AID 2326; note: actives are rising curves; nearly all actives have a fitted effect of over 50% in size
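Compounds were scored for reversing the slow growth caused by influenza A NS1 in S. cerevisiae, measured by optical density at 600 nm. Assay medium contained 2% galactose at pH 6.0; NS1-free yeast of the same strain were the positive control.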
LASV entry inh – inhibitors of Lassa virus binding or cell entry; Lassa virus pseudotype entry inhibition, cell reporter; control for the full effect not named in the record; Potency, µM (series often up to 37.9 µM), for inactives: at the highest dose activity change, negative = inhibition, usual class: inhibitors; 300,000 compounds, 1.2% hits; active means well fitted inhibition curve with a large enough effect; inconclusive means small, poorly fitted or top-dose-only effect, or effect the other way; inactive means flat fitted curve, though single readings scatter; tested in HEK293 cells; note: % is set by controls: 0 for no effect and ±100 for the full control effect; nearly all actives have a fitted effect of over 50% in size; luciferase read-out
Cruzain Triton – cruzain (T. cruzi) inhibition with detergent | P25779 | purified cruzain, Z-FR-AMC fluorescence, 0.01% Triton | Potency, µM, for inactives: max response, negative = inhibition, usual class: inhibitors | 200,000 compounds, 0.43% hits | AID 1478; active = well fitted curve in the direction sought with a large enough effect; inconclusive = small, poorly fitted or top-dose-only effect, or another doubt; inactive = no such curve, though single readings can be large; an effect the other way counts as inactive or inconclusive;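 note: plate controls were neutral wells for no effect and buffer without enzyme for full effect; nearly all actives have a fitted effect of over 40% in size; top concentration of the series not given in the record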
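15 min RT preincubation of 1.5 nM cruzain with compound, then 2 uM Z-FR-AMC added; kinetic AMC fluorescence, 60 s delta. Triton X-100 0.01%, pH 5.5.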
RE007 growth inh – less growth of the S. pombe RE007 Vpr strain; S. pombe RE007 Vpr strain, BacTiter-Glo ATP luminescence, 24 h; control for the full effect not named in the record; Potency, µM (top dose mostly 92.2 µM), for inactives: top-dose activity change, negative = less growth; 360,000 compounds, 0.21% hits; AID 651644; active = well fitted falling curve with a large enough effect; inconclusive = small, poorly fitted or top-dose-only effect; inactive = no such curve, though single readings can be large or run the other way;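 note: % is set by controls: 0 for no effect and ±100 for the full control effect; nearly all actives have a fitted effect of over 50% in size; the assay follows cell death caused by Vpr and the record does not say whether a fall means rescue or toxicity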
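Fission yeast RE007 carrying one integrated HIV-1 vpr copy, seeded at OD 0.01 in PMG+AL medium with 23 nL pinned compound. Grown 24 h at 30 degrees; viability read by BacTiter-Glo luminescence after 5 min.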
MARV entry inh – Marburg virus entry inhibition. Marburg virus pseudotyped entry inhibition, cell reporter; control for the full effect not named in the record; about a third of the inactives were read at about 46 µM. Potency, µM (top dose mostly 37.8 µM), inactives show at the top dose activity change, negative = inhibition, usual class: inhibitors. 300,000 compounds, 1.8% hits. AID 540276; active = well fitted inhibition curve with a large enough effect; inconclusive = small, poorly fitted or top-dose-only effect, or effect the other way; inactive = flat fitted curve, though single readings scatter; tested in HEK293 cells; about a fifth of its hits are not listed in these tables; note: % is set by controls: 0 for no effect and ±100 for the full control effect; luciferase read-out
SARS PLpro yeast – SARS-CoV PLP inhibition in yeast; S. cerevisiae expressing SARS-CoV PLpro, growth rescue; control for the full effect not named in the record; 330,000 compounds, 0.19% hits; Potency, µM (titrated, usually from 32.9 µM), inactives show top-dose activity, positive = growth rescue; note: 0% is about no effect; nearly all actives have a fitted effect of over 55% in size; growth read by luminescence after 48 h
StopGo reporter – FMDV 2A StopGo reporter, luciferase signal; 410,000 compounds, 1.2% hits; human cells with a luciferase reporter of 2A StopGo recoding; control for the full effect not named in the record; Potency, µM (doses to about 57.9 µM), inactives show at the top dose signal change, negative = less light; active = well fitted falling curve with a large enough effect; inconclusive = small, poorly fitted or top-dose-only effect; inactive = no such curve, though single readings can be large or run the other way; tested in HEK293T cells; note: % is set by controls: 0 for no effect and ±100 for the full control effect; nearly all actives have a fitted effect of over 45% in size; luciferase light after 4 h
Active calls of the source: *; ? = inconclusive; · = no result given; & = joins results of further samples; [ ] = dose if it differs, or a comment. Unless noted, calls come from the whole dose curve; as a rule, active means well fitted rising curve with a large enough effect; inconclusive means small, poorly fitted or top-dose-only effect; inactive means no such curve, though single readings can be large or run the other way. Potency is the fitted concentration of half-maximal effect.

Sequence of screens: LASV entry inh	MARV entry inh	StopGo reporter	Cruzain inh noDet	Cruzain Triton	SARS PLpro yeast	RE007 growth inh	NS1 function inh
> COc1ccccc1S(=O)(=O)Cc1ccc(C(=O)NCc2ccccc2)o1
→ -16%[46.1 µM]	-2%[46.1 µM]	27%	·	·	-4%	1%	1%
> Cc1ccc(CNC(=O)C(=O)NCC(c2cccs2)S(=O)(=O)c2ccc(C)cc2)cc1 (centres undefined)
→ ?	·	?	-29%	3.8%	·	·	·
> CS(=O)(=O)N(C(=O)NC(=O)NC12CC3CC(CC(C3)C1)C2)C1CCCCC1
→ 9%	7%[46.1 µM]	-8%	·	·	7%	-17%	·
> CCOc1cc(C(=O)NC(C)CC)cc(OCC)c1OCC (centres undefined)
→ 2%	18%	-13%	11%	1.9%	11%	7%	-1%
> O=C(c1cccc(Oc2ccccc2)c1)N1CCN(c2ccccn2)CC1
→ ?	?	-13%	·	·	-2%	-17%	·
> CCn1c(C(=O)NCc2ccccc2C)cc2oc3ccccc3c21
→ ·	?	-6%	?	-11%	·	·	·
> CC(C)c1ccc(N=C2NN=C(c3cccs3)CS2)cc1
→ ?	?	35%[activator]	·	·	-1%	7%	15%
> Cc1cccc(C)c1OCC(O)Cn1c2ccccc2c2ccccc21 (centres undefined)
→ 2%	?	?	0%	3.7%	-31%	35µM*	20%
> CCOc1ccc(S(=O)(=O)N2CCN(c3cccc(C(F)(F)F)c3)CC2)cc1OCC
→ -18%[46.1 µM]	5%[46.1 µM]	36%[activator]	-10%	-4.9%	·	·	·
> O=C(COC(=O)CCCSc1nc2ccccc2[nH]1)Nc1ccc(Cl)cc1
→ 4%	11%	0%	3%	-5.5%	4%	-13%	-19%
> CC(C)CCN1CCN(Cc2ccsc2)CC1CCO (centres undefined)
→ ·	·	-2%	·	·	0%	-6%	1%
> COc1ccc(/C=N/NC(=O)c2ccncc2)cc1CSc1nc2ccccc2s1
→ -18%	-13%	-29%	?	-3.0%	5%	2%	-7%
> O=C(NC1=NC2CCCCC2N1)c1ccccc1 (centres undefined)
→ ?	?	13µM*	-11%	-2.5%	6%	2%	4%
> Cc1ccc(S(=O)(=O)c2nnn3c2nc(N2CCC(C(N)=O)CC2)c2ccccc23)cc1C
→ ·	·	4%	·	·	7%	2%	19%
> Cc1ccc(C(=O)N/C(=C/c2ccco2)C(=O)N2CCCCCC2)cc1
→ -20%[46.1 µM]	9%[46.1 µM]	21%	·	·	1%	-3%	?
> COCCn1c(C)nc2oc3ccc(Br)cc3c(=O)c2c1=O
→ 10%	-10%	29%	-2%	-4.4%	2%	-9%	0%
> Nn1cnnc1N/N=C/c1ccc(F)cc1
→ ·	·	-1%	·	·	-4%	6%	-22%
> O=C(OCc1ccc2c(c1)OCO2)c1ccc(S(=O)(=O)N2CCCCC2)cc1
→ -9%	-18%	-17%	1%	1.5%	2%	2%	-6%
> Cc1cc(C(F)(F)F)n(-c2nc(C(=O)NNS(=O)(=O)c3ccccc3[N+](=O)[O-])cs2)n1
→ 4%[46.1 µM]	-3%[46.1 µM]	2%	·	·	-1%	5%	-4%
> CN1CCN(C(=O)C2=C[C@@H](c3ccc(C(F)(F)F)cc3)C[C@@H](OCc3ccc(CO)cc3)O2)CC1
→ ·	·	0%	·	·	0%	8%	1%
> COc1ccc(NC(=O)Cn2c(=O)n(-c3ccc(OC)cc3OC)c(=O)c3c(C)c(C)sc32)cc1
→ ?	?	-4%	?	-3.7%	-5%	20%	8%
> CC(C)=CC(=O)OCc1csc(CC(=O)Nc2ccccc2C)n1
→ 14%[46.1 µM]	-22%[46.1 µM]	32%[activator]	·	·	-9%	12%	2%
> Cc1ccc(-c2nnc(SCC(=O)Nc3cccc(C(=O)N4CCOCC4)c3)n2C)cc1
→ 6%	-16%	7%	-5%	0.2%	13%	1%	3%
> CC(CC(=O)N1CCN(c2ccccc2)CC1)c1ccccc1 (centres undefined)
→ 5%	0%	-15%	-4%	-0.7%	12%	0%	-2%
> Cc1ccc([N+](=O)[O-])cc1NC(=S)NCCc1ccccc1
→ ·	·	-14%	·	·	1%	19%	5%
> CCOCCCNC(=O)CCC(=O)NNc1nc2ccccc2c2nc(C)nn12
→ 3%[46.1 µM]	0%&0%[46.1 µM]	-4%&4%	16%	-0.9%	3%	1%	·
> CC1Cc2ccccc2N1C(=O)Cn1cnc2ccccc2c1=O (centres undefined)
→ -13%	0%	-5%	7%	-2.2%	-11%	1%	-6%
> COc1ccccc1CN(C)C(=O)c1cc(-c2cc(OC)c(OC)c(OC)c2)nc2ccccc12
→ ?	?	-4%	·	·	-1%	25%	3%
> O=c1c2cc3c(cc2nc2sc(Nc4cccc([N+](=O)[O-])c4)nn12)OCO3
→ 7%[46.1 µM]	·	-16%	9%	-1.6%	·	·	·
> COc1ccc(OC)c(N/C(=N/C(=S)Nc2ccccc2)Nc2nc(C)cc(C)n2)c1
→ ·	·	-19%	·	·	1%	-1%	-1%
> Cc1nn2c(C)c(C(=O)Nc3ccccc3)cnc2c1-c1ccccc1
→ -22%[46.1 µM]	?	?	·	·	-3%	-4%	-7%
> CCn1c(SCC(=O)N2c3ccccc3CCc3ccccc32)nnc1-c1ccc(OC)cc1
→ -6%	-4%	-13%	4%	3.4%	0%	-7%	5%
> O=C(Nc1ccc2c(c1)CCCN2C(=O)c1cccs1)c1ccc(F)c(F)c1
→ ?	·	?	5%	-3.7%	·	·	·
> Cc1cc(=O)oc2cc3c(cc12)OCCO3
→ 4%	9%	8%	9%	-4.7%	0%	2%	-8%
> Cc1nc(C(=O)Nc2ccc(Cl)cc2)sc1C1(C)CC(c2ccccc2)=NO1 (centres undefined)
→ ·	·	-28%	·	·	-1%	13%	-1%
> CC12COC3(P(=O)(c4ccccc4)c4ccccc4)CC1CCC23CP(=O)(c1ccccc1)c1ccccc1 (centres undefined)
→ ?	?	0%	·	·	-1%	26%	·
> O=C(O)c1ccc(N/N=C/c2cccc3nccnc23)cc1
→ ·	·	11%	·	·	0%	4%	7%
> COCCn1c(C)cc(C(=O)COC(=O)c2ccc(N3CCCC3=O)cc2)c1C
→ -8%	13%[46.1 µM]	28%	?	5.7%	1%	18%	-9%
> CCCCN(C(=O)c1cnccn1)c1c(N)n(CCC)c(=O)[nH]c1=O
→ 12%[46.1 µM]	5%[46.1 µM]	-7%	·	·	-4%	3%	·
> COc1ccccc1-c1cc(C(=O)Nc2cc(C)nn2-c2ccccc2)no1
→ ?	-23%	?	14%	5.5%	2%	-1%	-1%
> CSc1ccc(/C=N/NC(=O)C[n+]2ccccc2)cc1
→ ·	·	-12%	·	·	1%	-2%	-3%
> Oc1cccc2ccc[n+](CC(O)Cn3c4ccccc4c4ccccc43)c12 (centres undefined)
→ ?	?	0%	-9%	-9.2%	-4%	-4%	22%
> Cc1ccc(-c2cc(C(=O)N/N=C/c3ccc([N+](=O)[O-])o3)c3ccccc3n2)o1
→ ?	?	-17%	·	·	-7%	-16%	-5%
> COc1ccc(-n2nnnc2SCC(=O)NCCc2ccccc2)cc1
→ -4%[46.1 µM]	3%[46.1 µM]	0%	15%	-1.3%	·	·	·
> O=C(COC(=O)c1ccccc1C(=O)c1ccc(Cl)cc1)NCc1ccccc1
→ ·	·	-17%	0%	-8.4%	17%	-2%	1%
> CC(=O)c1c(N2CCN(Cc3ccccc3)CC2)nc(=S)n(Cc2ccccc2)c1C
→ ?	-14%	?	-8%	-2.5%	10%	13%	-2%
> COc1ccc(C(=O)NCC(c2ccc(F)cc2)N2CCOCC2)cc1S(=O)(=O)N1CCCC1 (centres undefined)
→ 11%	-16%	-1%	11%	3.1%	7%	1%	-15%
> COc1ccccc1CNC(=O)CCCCn1c(=O)c2ccccc2n(CC(=O)Nc2c(C)cc(C)cc2C)c1=O
→ 4%[46.1 µM]	-24%[46.1 µM]	11%	-3%	-1.1%	·	·	·
> Cc1ccc(NC(c2cccc(Cl)c2)c2nnc(-c3ccccc3)o2)cc1F (centres undefined)
→ 2%[46.1 µM]	?	11%	?	-2.0%	·	·	·
> COC(=O)c1c(NC(C)=O)sc(C(=O)Nc2ccccc2OC)c1C
→ -29%	?	-2%	·	·	-1%	0%	-4%
> Cc1cc(C)c(NC(=O)C2CCN(c3nc4ccccc4[nH]3)CC2)c(C)c1
→ 12%[46.1 µM]	·	2%	-4%	0.4%	·	·	·
> CCn1cc(CNC(=O)C2CCC(=O)N(CCc3cccc(F)c3)C2)cn1 (centres undefined)
→ 25%	23%	-9%	·	·	?	20%	1%
> COc1ccc(Nc2nnc(-c3ccc(N4CCOCC4)c([N+](=O)[O-])c3)c3ccccc23)cc1
→ 0%	-12%	-4%	3%	0.8%	6%	?	11%
> COc1ccc(C(=O)Nc2ccc3nc4n(c(=O)c3c2)CCCCC4)cc1OC
→ 1%[46.1 µM]	28%[46.1 µM]	-16%&-13%	25%	-1.7%	·	-9%	·
> Cc1ccc(C(=O)Nc2cccc(C(=O)NCc3ccccc3)c2)o1
→ ?	-18%	11%	1%	-0.1%	-2%	?	-47%
> O=C(Nc1ccc(Cl)cc1)Nn1cnnc1
→ 0%[46.1 µM]	6%[46.1 µM]	-15%	·	·	2%	6%	-1%
> Cc1ccc(NC(=O)Cc2ccc(-n3c(C)nc4cccnc43)cc2)cc1C
→ ?	·	?	?	-4.9%	·	·	·
> CCOC(=O)c1c(C)c(C(=O)N2CCN(c3cccc(Cl)c3)CC2)c(C)n1C
→ -11%	?	-21%	?	-15%	-11%	3%	-136%
> Cn1cc(C=O)c2cc(S(=O)(=O)N3CCOCC3)ccc21
→ 8%	-24%	10%	-2%	-3.1%	5%	0%	-15%
> CCCN(CCC)C(=O)CSc1nnc2cc(C)c3cc(C)cc(C)c3n12
→ 0%[46.1 µM]	14%[46.1 µM]	-6%	-6%	-3.6%	·	·	·
